Source: PubChem (several laboratories)
PABP polyA inh: blocks human PABP binding to poly(A) RNA; 290,000 tested, 1% active; fluorescence polarization; P11940; inhibition, % at 35 µM;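 active means 50% or more with normal probe brightness, or confirmed in later tests; inconclusive means above 50% with abnormal brightness, or retests that disagree; inactive means below 50% or failed in later tests; about a fifth of its hits are not listed in these tables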;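 further: calls also rest on retests at 20 µM and on dose response follow-up; controls were probe without protein and protein plus probe with vehicle; some compounds called inactive have numbers as strong as hits; many hits fall short of the cut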
Target sequence (P11940 whole entry, looked up): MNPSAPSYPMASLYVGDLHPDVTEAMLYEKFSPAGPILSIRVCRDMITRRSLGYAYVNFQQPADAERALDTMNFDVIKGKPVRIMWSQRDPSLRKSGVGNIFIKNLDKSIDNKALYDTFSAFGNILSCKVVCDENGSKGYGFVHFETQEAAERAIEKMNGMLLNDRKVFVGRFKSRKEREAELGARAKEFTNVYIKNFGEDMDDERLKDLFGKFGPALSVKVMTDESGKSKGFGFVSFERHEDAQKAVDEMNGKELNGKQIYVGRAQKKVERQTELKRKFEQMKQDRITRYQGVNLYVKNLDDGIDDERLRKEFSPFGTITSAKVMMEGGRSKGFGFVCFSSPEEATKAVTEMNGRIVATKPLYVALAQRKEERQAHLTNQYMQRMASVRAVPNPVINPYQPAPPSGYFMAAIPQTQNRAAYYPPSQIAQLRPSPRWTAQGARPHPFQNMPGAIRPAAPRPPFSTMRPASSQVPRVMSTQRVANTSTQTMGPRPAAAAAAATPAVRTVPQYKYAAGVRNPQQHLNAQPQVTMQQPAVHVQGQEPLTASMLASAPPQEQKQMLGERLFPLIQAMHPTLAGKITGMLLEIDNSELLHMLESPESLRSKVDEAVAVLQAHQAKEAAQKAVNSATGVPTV
Rce1 inhib: blocks yeast Ras-converting enzyme. yeast membranes, quenched prenylated peptide cleavage fluorescence. 290,000 tested, 0.27% active. calls only. Q03530;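 active means fall in fluorescence gain of 50% or more versus controls, with final raw signal at or below 3038400; inconclusive means same 50% fall but final raw signal above 3038400; inactive means fall in fluorescence gain under 50%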;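 further: plate controls were neutral control wells for no effect and wells lacking membranes for full effect; tested at 10 µM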
eIF4H FP inh: inhibitors of RNA binding by human eIF4H | Q15056 | eIF4H fluorescence polarization binding assay | inhibition, % at 35 µM | 290,000 tested, 0.94% active | AID 2012;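 active means 50% or more with normal probe brightness, or confirmed in later tests; inconclusive means above 50% with abnormal brightness, or retests that disagree; inactive means below 50% or failed in later tests; about a fifth of its hits are not listed in these tables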;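 further: calls also rest on retests at 20 µM and on dose response follow-up; 0% = protein and probe with vehicle and 100% = probe without protein; strong numbers were not always called active; many hits fall short of the cut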
CSC inhib: blocks cancer stem cells; 300,000 tested, 1.1% active; cancer stem cell-like cells viability, luminescence; inhibition, % at 7.5 µM;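 active means mean at 75% or more and at least half the replicates too; inconclusive means mean and replicates disagree; tested in HMLE shEcad cells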;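 further: 0% = median of negative and 100% = median of positive control wells; the first replicate is given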
HIV Env fusion: blocks HIV Env-driven cell-cell fusion | 360,000 tested, 1.1% active | inhibition, % at 12.3 µM | AID 651610 | HeLa-JRFL Env/CEM21 cell fusion, luciferase;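 active means mean replicate inhibition score of at least 50 and every replicate individually at or above 50; inconclusive means only one of the two criteria met; inactive means mean below 50 and not all replicates reaching 50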;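 further: 0% = plate neutral controls and 100% = maraviroc near 300 nM; one replicate is shown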
Yeast UUG start: modulators of start codon recognition fidelity in yeast; S. cerevisiae UUG-firefly luciferase reporter, luminescence/redox ratio; activity score, % at 18.7 µM; 350,000 tested, 0.13% active;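 active means replicate mean at a twofold rise or more, about +100% in these data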;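 further: firefly luciferase made from a UUG start codon reports start codon fidelity; reporter light over untreated wells divided by growth signal over untreated wells; some hits fall short of that in this replicate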
MT1-MMP act inh: inhibitors of human MT1-MMP activation; P50281; HT1080 RFP-PRO-GFP cells, GFP/RFP ratio fluorescence, overnight; percent of plate control window, DMSO zero; GFP/RFP ratio change, % at 20 µM; 360,000 tested, 0.061% active; AID 651647;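 active means GFP/RFP ratio change of at least 30% with cell ATP level not reduced by more than half and red fluorescence within 50% of control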; further: strong numbers were not always called active
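system = RFP-PRO-GFP reporter HT1080 cells | dosing = 20 µM single dose, 1% DMSO | timing = overnight cell settling, then overnight compound exposure, 37 °C, 5% CO2 | read-out basis = GFP/RFP fluorescence ratio | controls = DMSO and RFP-L50D-GFP cell wells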
MT1-MMP act inh RFP: recorded beside MT1-MMP act inh, whose call it bears; RFP signal change, %; measured here: RFP expression control read;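 0 = vehicle wells; hits needed this value within 50% of zero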
An asterisk follows results filed as active; i = inactive; ? = inconclusive; nt = not tested or not shown; & = joins results of further samples. This is a subset. The share of hits here may be higher or lower than overall.

nr	Structure	Rce1 inhib	HIV Env fusion	eIF4H FP inh	Yeast UUG start	PABP polyA inh	CSC inhib	MT1-MMP act inh	MT1-MMP act inh RFP
1	CC1=C(C(=O)Nc2ccccc2)C(c2ccc3c(c2)OCO3)C2=C(CCCC2=O)N1 (stereo not given)	i	-43	5	-17	16	-2	-2	-5
2	COc1cc2c(C(=O)N3CCN(c4ccccc4F)CC3)cn(C)c(=O)c2cc1OC	i	16	-2	nt	-7	-5	0	3
3	COc1ccc(CNC(=O)CSc2ccc(Br)cc2)cc1OC	i	nt	-7	nt	4	-14	4	1
4	N#Cc1cccc(NC(=O)CNc2cccc(S(=O)(=O)N3CCCC3)c2)c1	i	nt	nt	-6	nt	12	0	-14
5	CCOCCCNc1ccc(N2C(=O)CCCC2=O)cc1[N+](=O)[O-]	i	23	-4	-10	-10	-11	6	2
6	C/C(=N/NC(=O)Cc1c(C)[nH][nH]c1=O)c1ccc(O)cc1	i	21	-18	nt	-14	-15	0	0
7	COc1ccc(N(Cc2cc3ccccc3[nH]c2=O)S(C)(=O)=O)cc1	i	5	4	nt	8	-7	-3	-4
8	CCOC(=O)CN(C(=O)CSc1nnc(CNc2ccc(C)cc2C)o1)c1ccccc1	i	13	-4	-11	6	2	-4	-3
9	CCC1CCCCN1CCCNC(=O)C1CCN(c2nnc(-n3cccc3)s2)CC1 (stereo not given)	i	8	nt	6	nt	-9	0	-2
10	CCN(CC)S(=O)(=O)c1ccc(C(=O)Oc2ccc3c(c2)OCO3)cc1	i	-18	5	-12	4	-9	5	1
11	O=C(O)c1ccccc1C(=O)NC1=NN(c2ccccc2)CC1	i	-1	-2	-2	7	-8	2	5
12	CCOC(=O)c1ccc(NC(=O)CN2C(=O)CCC2=O)cc1	i	nt	-6	5	2	-9	3	6
13	Cc1nn(Cc2ccc(Cl)cc2)c2sc(C(=O)O)cc12	i	1	-4	nt	-11	-5	2	-5
14	Cc1ccc(CNS(=O)(=O)c2ccc3c(c2)C(C)(C)C(=O)N3C)cc1	i	-11	-3	2	-4	-6	1	-2
15	O=C(COC(=O)c1oc2ccccc2c1COc1ccccc1)NCCN1C(=O)CSC1=O	i	-7	-5	0	47	24	-1	-2

The final two entries of the section before are carried over, then new ones follow.
nr	Structure	Rce1 inhib	HIV Env fusion	eIF4H FP inh	Yeast UUG start	PABP polyA inh	CSC inhib	MT1-MMP act inh	MT1-MMP act inh RFP
14	Cc1ccc(CNS(=O)(=O)c2ccc3c(c2)C(C)(C)C(=O)N3C)cc1	i	-11	-3	2	-4	-6	1	-2
15	O=C(COC(=O)c1oc2ccccc2c1COc1ccccc1)NCCN1C(=O)CSC1=O	i	-7	-5	0	47	24	-1	-2
16	CSc1ccccc1C(=O)NC1CCSc2ccccc21 (stereo not given)	nt	11	3	-9	-5	-6	-7	-4
17	Cc1ccc(C)c(N2CCN(S(=O)(=O)c3ccc4c(c3)OCCO4)CC2)c1	i	nt	0	-8	5	-15	-4	-7
18	CC1(C)Cc2c(C#N)c(SCCC#N)nc(N3CCOCC3)c2CO1	i	-13	-1	-10	-2	-1	-4	0
19	CC(=O)Nc1ccc(-c2nnc(SCC(=O)NCc3ccco3)n2C)cc1	i	2	3	nt	18	-24	2	-1
20	CC(C)NC(=O)c1cc(-c2ccco2)on1	i	nt	-12	-7	-6	-1	nt	nt
21	CC(C)(C)OC(=O)[C@H](Cc1ccccc1)NC(=O)c1[nH]cnc1C(=O)N[C@@H](Cc1ccccc1)C(=O)OCc1ccccc1	i	7	17	22	-6	10	-12	-9
22	O=C(COC(=O)/C=C/c1c(F)cccc1Cl)NCC1CCCO1 (stereo not given)	nt	12	nt	-16	nt	nt	3	-1
23	CCCCN(C(C)=O)C1CC(=O)N(c2ccc(OCCC)cc2)C1=O (stereo not given)	i	?	-9	-5	-4	-7	0	4
24	CCOC(=O)COc1ccc2ccccc2c1/C=C/[N+](=O)[O-]	i	-277	-3	nt	36	-8	-6	-8
25	C[C@H](CO)N1C[C@H](C)[C@@H](CN(C)S(=O)(=O)c2ccc3ccccc3c2)OCc2cnnn2CCCC1=O	nt	9	nt	-11&-11&-2	nt	nt	2	5
26	Cc1ccc(C)n1-c1cccc(NC(=O)c2ccccc2)c1	i	nt	-3	nt	-3	-1	-12	-1
27	CC1CC(C)CN(C(=O)C2CCC(CNc3c(N4CCCCC4)c(=O)c3=O)CC2)C1 (stereo not given)	i	-13	1	nt	-8	-17	3	4
28	COC(=O)C(C(=O)Nc1ccccc1C)C1CCCC1 (stereo not given)	i	nt	-17	nt	1	4	5	5
29	COc1ccc(C(=O)C[n+]2cccc(Br)c2)cc1	i	4	-13	nt	1	-5	0	4
30	NC(=O)c1ccccc1NC(=O)C1CCCO1 (stereo not given)	i	-5	-10	-8	-10	-5	-1	8
31	CCOC(=O)C(C)n1nc(C)c2sc3ccccc3c2c1=O (stereo not given)	i	-20	13	-3	0	-5	-7	-5
32	COc1ccccc1Nc1ncnc2c1oc1ccccc12	i	nt	-2	-6	3	-8	1	1
33	O=C(Nc1ccc(N2CCN(C(=O)c3ccco3)CC2)cc1)c1cccc(F)c1	i	-75	-6	34	4	0	2	1
34	Cc1ccc2nc(-c3ccncc3)cc(C(=O)Nc3ccc4c(c3)OCCO4)c2c1	i	-12	-8	nt	-3	51	-5	-5
35	Cc1ccc(NC(=O)C/C(N)=N/OC(=O)Nc2cccc(C)c2)cc1	nt	-9	nt	-20	nt	nt	1	1
36	CCn1c(C)nc2cc(C(=O)NN=C(C)c3ccc(C#N)cc3)ccc21	nt	-13	nt	-5	nt	-8	-2	-1
37	Cc1ccccc1OCCC(=O)OCC(=O)c1c(N)n(CC(C)C)c(=O)n(C)c1=O	i	32	-2	9	10	-7	4	-18
38	CC1CC(C)CN(C(=O)CSc2nnc(-c3ccc(Cl)cc3)o2)C1 (stereo not given)	i	0	-3	-3	22	43	-3	-1
39	CCN(C(=O)c1ccnc(C(C)(C)C)c1)c1ccccc1	i	nt	-4	nt	-11	7	3	-3
40	CC(C)NC(=O)c1ccc(Cl)cc1Cl	i	11	-1	-1	-10	-5	3	2
41	Cc1nnc(NC(=O)CSc2nnc(CC(=O)Nc3ccccc3Cl)n2C)s1	i	-14	8	nt	12	9	1	2
42	FC(F)(F)c1cc(-c2cccs2)nc2cc(-c3ccccc3)nn12	i	-18	9	-8	-7	nt	0	-1
43	Cc1ccc(C(=O)N/C(=C\c2cccs2)C(=O)NCc2cccnc2)cc1	i	24	7	-13	3	-11	0	4
44	CCOc1ccc(-c2ccc(NS(=O)(=O)c3cc([N+](=O)[O-])c(C)c([N+](=O)[O-])c3)cc2)nn1	i	-1	-4	-2	-10	13	-1	-1
45	Cc1c(C(=O)NCc2ccc3c(c2)OCO3)sc(=O)n1Cc1ccc(-c2ccccc2)cc1	nt	0	nt	-4	nt	nt	1	-12
46	Cc1sc2nc(CSCC(=O)Nc3ccc(C(F)(F)F)cc3)[nH]c(=O)c2c1C	nt	78*	nt	-7	nt	nt	1	-2
47	CCOc1nc(-c2ccccc2)c2cc(C)ccc2n1	i	26	-14	-6	0	-10	2	3
48	COc1cc(C2c3cc4c(cc3C(OC3OC5COC(c6cccs6)OC5C(O)C3O)C3COC(=O)C23)OCO4)cc(OC)c1O (stereo not given)	i	-120	-2	-5	2	101*	-6	-10
49	COCCCNC(=O)Nc1ccc2c(c1)N(C)C(=O)CS2	i	-105	10	nt	-8	-7	-3	-2
50	O=C(c1ccc(Cl)cc1)c1cc(-c2ccccn2)c(N2CCOCC2)s1	i	24	-12	-3	8	-8	0	-3
51	O=C(Cn1cnc2ccccc2c1=O)Nc1ccc2c(c1)OCO2	i	-13	-2	-12	-3	-4	-1	13
52	CCC(CC)c1nnc(NC(=O)CCCN2C(=O)c3ccccc3C2=O)s1	i	-93	-4	-14	-2	-10	-3	-3
53	O=Cc1cnc(N2CCOCC2)nc1	i	nt	-12	-1	-3	-8	1	7
54	CC(=O)c1ccc(OCc2nnn(CC(=O)NS(=O)(=O)c3ccc(C)cc3)c2-c2ccccc2)cc1	nt	20	nt	1	nt	nt	-5	5
55	COC(=O)CCNC(=O)c1nn(Cc2ccccc2)c(=O)c2ccccc12	i	15	0	-8	-5	-2	0	1
56	O=C(CSc1nnc2ccccn12)Nc1cccc(-c2nc3ccccc3s2)c1	i	-69	15	nt	16	10	4	0
57	O=C1Nc2ccccc2C1(O)Cc1ccccn1 (stereo not given)	i	-2	-6	4	-2	-8	1	3
58	CCOc1ccccc1N1CCN(C(=O)c2ccc(NS(=O)(=O)c3ccc4[nH]c(=O)[nH]c4c3)cc2)CC1	i	nt	nt	0	nt	-4	-3	2
59	CCn1cc([N+](=O)[O-])c(C(=O)N2N=C(c3cccc4ccccc34)CC2c2ccccc2O)n1 (stereo not given)	i	10	-6	-7	3	4	-10	-10
60	CCCc1ccc(OCc2ccc(C(=O)OC)o2)c(OC)c1	i	nt	1	nt	-8	nt	2	-1

5 structures out of the list, ordered by formula weight, lowest first.
nr	Structure	Rce1 inhib	HIV Env fusion	eIF4H FP inh	Yeast UUG start	PABP polyA inh	CSC inhib	MT1-MMP act inh	MT1-MMP act inh RFP
60	CCCc1ccc(OCc2ccc(C(=O)OC)o2)c(OC)c1	i	nt	1	nt	-8	nt	2	-1
55	COC(=O)CCNC(=O)c1nn(Cc2ccccc2)c(=O)c2ccccc12	i	15	0	-8	-5	-2	0	1
52	CCC(CC)c1nnc(NC(=O)CCCN2C(=O)c3ccccc3C2=O)s1	i	-93	-4	-14	-2	-10	-3	-3
58	CCOc1ccccc1N1CCN(C(=O)c2ccc(NS(=O)(=O)c3ccc4[nH]c(=O)[nH]c4c3)cc2)CC1	i	nt	nt	0	nt	-4	-3	2
48	COc1cc(C2c3cc4c(cc3C(OC3OC5COC(c6cccs6)OC5C(O)C3O)C3COC(=O)C23)OCO4)cc(OC)c1O (stereo not given)	i	-120	-2	-5	2	101*	-6	-10

Shown with each value named: part of the list above.
12	CCOC(=O)c1ccc(NC(=O)CN2C(=O)CCC2=O)cc1
  Rce1 inhib: i	HIV Env fusion: nt	eIF4H FP inh: -6	Yeast UUG start: 5	PABP polyA inh: 2	CSC inhib: -9	MT1-MMP act inh: 3	MT1-MMP act inh RFP: 6
13	Cc1nn(Cc2ccc(Cl)cc2)c2sc(C(=O)O)cc12
  Rce1 inhib: i	HIV Env fusion: 1	eIF4H FP inh: -4	Yeast UUG start: nt	PABP polyA inh: -11	CSC inhib: -5	MT1-MMP act inh: 2	MT1-MMP act inh RFP: -5
14	Cc1ccc(CNS(=O)(=O)c2ccc3c(c2)C(C)(C)C(=O)N3C)cc1
  Rce1 inhib: i	HIV Env fusion: -11	eIF4H FP inh: -3	Yeast UUG start: 2	PABP polyA inh: -4	CSC inhib: -6	MT1-MMP act inh: 1	MT1-MMP act inh RFP: -2

Following part
nr	Structure	Rce1 inhib	HIV Env fusion	eIF4H FP inh	Yeast UUG start	PABP polyA inh	CSC inhib	MT1-MMP act inh	MT1-MMP act inh RFP
61	O=C(O)CNC(=S)NCc1ccccc1	i	-6	-8	-19	?	-3	-5	2
62	Cc1ccc(N(Cc2ccccc2)C(=O)c2ccc(F)cc2)cc1	i	-4	2	-3	4	23	-2	1
63	CCn1c(CN2CCN(c3ccc(Cl)cc3)CC2)nc2ccccc21	i	28	14	-18	-2	-4	6	-9
64	COc1ccc2[nH]c(=O)c(CN(C(=O)c3ccco3)C3CCCCC3)cc2c1	i	nt	13	-10	12	1	0	-6
